E coli growth – blocks Escherichia coli growth; hit rate 0.21% among 330,000; OD600, 23 h; hits give low values; OD600 absorbance (no concentration beside the values);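 active means OD600 absorbance below the run mean of sample wells minus 3.6 SD, in any replicate, cut at about 0.56 in these data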;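 further: stock transfer was 300 nL into about 60 µL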
* = called active by the depositor; & = joins results of further samples. Not all compounds are listed; count on the stated rates, not on these rows.

SMILES	E coli growth
COC(=O)[C@]1(Cc2ccccc2)NC(c2ccc(-c3ccccc3)cc2)C2C(=O)N(C)C(=O)C21 (stereo not given in full)	0.678
COC(CC1OC1C(O)C(C)OCc1ccccc1)OC (stereo not given)	0.647&0.685&0.682&0.669&0.7&0.654&0.695&0.711&0.709&0.706&0.685
CCCCN1C(=S)NCC1Cc1ccc(O)cc1 (stereo not given)	0.685
O=C(C1=CC(C2CCCCC2)CC(OCc2ccc(CO)cc2)O1)N1CCN(Cc2ccc3c(c2)OCO3)CC1 (stereo not given)	0.726&0.738
COC(=O)C1=C(C(=O)OC)C2N(C)c3ccccc3[C@@]23CC(C(=O)OC)N(C(=O)C2CCC2)C3=N1 (stereo not given in full)	0.682
CCOC1c2c(ccc3ccc(=O)oc23)OC(C)(C)C1O (stereo not given)	0.689
N#CC(=Cc1ccc(Oc2ccc(C(F)(F)F)cc2[N+](=O)[O-])cc1)c1nc2ccccc2[nH]1	0.731
CCOC(=O)c1cccc(C2=CC(=O)CC(c3ccc(OC)c(OC)c3)C2)c1 (stereo not given)	0.709
CC1CN=C(N(C)C)N1CCCC1CCCCC1 (stereo not given)	0.69
COC(=O)CN1C(=O)C2C(c3ccc(C)o3)N3C(=O)CN(Cc4ccccn4)C(=O)[C@@]3(C)C2C1=O (stereo not given in full)	0.707
COC(=O)[C@@]1(Cc2ccc(OC)cc2)C2c3cc(C(=O)N(C)C)n(CCc4ccc(OC)c(Br)c4)c3CC2CN1C(=O)c1ccccc1 (stereo not given in full)	0.761
CC(C)CC(NC(=O)c1nc[nH]c1C(=O)NC1CCN(C(=O)OC(C)(C)C)CC1)C(=O)OC(C)(C)C (stereo not given)	0.7
O=C(Nc1ccc2c(c1)OCO2)OC1CC2CCC(=O)N3CCC(C1)C23 (stereo not given)	0.673
COC(=O)C(NC(=O)c1ccccc1)C(C)O (stereo not given)	0.65
CCCCCC(=O)N1CC2(CC(c3cccc(NC(=O)CC)c3)=NO2)CC1C(N)=O (stereo not given)	0.684
CC(C)C(NC(=O)NCc1cccs1)C(=O)O (stereo not given)	0.726
COc1ccc(C=CC2=CCN(Cc3ccc(OC)cc3)CC2)cc1	0.698
CC1CN(C(C)CO)C(=O)c2cccc(NC(=O)NC3CCCCC3)c2OC1CN(C)C(=O)Nc1ccc(C(F)(F)F)cc1 (stereo not given)	0.648&0.654
O=S(=O)(c1ccccc1)[C@@]1(c2ccccc2)CC2ON=C(c3cccc(Br)c3)C2C1 (stereo not given in full)	0.756
OCCC1CC(O)C(O)[C@]2(Cc3ccccc3CCO2)O1 (stereo not given in full)	0.666&0.681&0.69&0.688
N#Cc1ccc(C23CC4(C2)C(CN(Cc2ccc(C(F)(F)F)cc2)C4c2ccccc2)C3c2ccc(Cl)nc2)cc1 (stereo not given)	0.689
CCOC(=O)C1C2COc3ccc(OC)cc3C2N2C(=O)c3cc(OC)c(OC)cc3NC(=O)[C@@]12C (stereo not given in full)	0.684
CC(C)C1CN=C2N(CCNC(=O)CCC3CCCCC3)C(Cc3ccc(O)cc3)CN21 (stereo not given)	0.681
COc1ccc(-c2ccc(C(C)=O)cc2)cc1C1C2C=CCC(C)C2C(=O)N1Cc1ccccc1 (stereo not given)	0.733
CCCC1CCCO[C@@](C(=O)NCCN2CCOCC2)(C(F)(F)F)C1 (stereo not given in full)	0.693
CCCCN1CC(=O)N2C3c4ccc(OC)cc4OCC3C(C(=O)OCC)[C@]2(C)C1=O (stereo not given in full)	0.641
Cc1ccc2c(c1)C(=O)N1C3c4cc(Br)ccc4OCC3C(c3ccccc3)[C@]1(C)C(=O)N2 (stereo not given in full)	0.712
O=C1C=C(c2ccc(O)cc2)CC(c2ccc(Cl)cc2)C1 (stereo not given)	0.668
CC(=CC(=O)c1ccccc1)Nc1ccc2c(c1)OCO2	0.66
CCc1ccc2c(c1)C(=O)C[C@]1(CCCC(C)C1)O2 (stereo not given in full)	0.703

Entries from the list above with bromine:
SMILES	E coli growth
COC(=O)[C@@]1(Cc2ccc(OC)cc2)C2c3cc(C(=O)N(C)C)n(CCc4ccc(OC)c(Br)c4)c3CC2CN1C(=O)c1ccccc1 (stereo not given in full)	0.761
O=S(=O)(c1ccccc1)[C@@]1(c2ccccc2)CC2ON=C(c3cccc(Br)c3)C2C1 (stereo not given in full)	0.756
Cc1ccc2c(c1)C(=O)N1C3c4cc(Br)ccc4OCC3C(c3ccccc3)[C@]1(C)C(=O)N2 (stereo not given in full)	0.712

Remaining list, next part
SMILES	E coli growth
CC1C(c2ccccc2)CC(C(=O)O)C1(C)C (stereo not given)	0.685
O=C(NCc1nc2ccccc2[nH]1)C1=CC(c2csc3ccccc23)CC(OCc2ccc(CO)cc2)O1 (stereo not given)	0.733&0.708
CCOC1OC(C(=O)N2CCOCC2)=CC(c2coc3ccccc3c2=O)C1CCCO (stereo not given)	0.638&0.696
CCOC(=O)NC(=O)C(C#N)=CNc1sccc1C(=O)OC	0.709
CNCC1Oc2c(NC(=O)C3CC3)cccc2C(=O)N(C(C)CO)CC1C (stereo not given)	0.706
CC(C)CC(NC(=O)c1nc[nH]c1C(=O)NC(CCCCNC(=O)OC(C)(C)C)C(=O)OC(C)(C)C)C(=O)OC(C)(C)C (stereo not given)	0.668
COC(=O)CN1C(=O)C2C(c3ccc(C)o3)N3C(=O)CN(Cc4ccccc4)C(=O)[C@@]3(C)C2C1=O (stereo not given in full)	0.632
O=C(NC1CC1)C1=CC(c2ccccc2)CC(OCCCCO)O1 (stereo not given)	0.699
CC=CC(=O)Nc1cccc(C2=NOC3(C2)CC(C(N)=O)N(C(=O)C2(C)CC2)C3)c1 (stereo not given)	0.715
CC(NCc1cccnc1)=C(C#N)C(=O)NCc1ccccc1	0.708
C#CCNC(=O)C1=CC(c2ccc(C(F)(F)F)cc2)CC(OCc2ccc(CO)cc2)O1 (stereo not given)	0.715&0.651
CCC(=O)Nc1cccc(C2=NOC3(C2)CC(C(N)=O)N(C(=O)c2ccc(Cl)cc2)C3)c1 (stereo not given)	0.69
Cc1ccc(CNC(=O)C2(C(F)(F)F)CC(=CCc3ccccc3)CCCO2)o1 (stereo not given)	0.697
Cc1cccc(N2C(=O)N3C4c5ccccc5OCC4C(c4ccccc4)[C@@]3(C)C2=O)c1 (stereo not given in full)	0.693
COc1ccc(-c2ccoc2)cc1C1C2C=CCC(C)C2C(=O)N1Cc1ccccc1 (stereo not given)	0.714
COc1ccc(CN2CCC(=O)N(C(CO)Cc3ccccc3)CC2)cc1 (stereo not given)	0.706
CC(=O)OC[C@]1(OC(C)=O)C[C@@]23CCC4[C@@](C)(CCC[C@@]4(C)C(=O)O)C2CCC1C3 (stereo not given in full)	0.707
NC(=O)C1=CC(C2CCCCC2)CC(OCc2ccc(CO)cc2)O1 (stereo not given)	0.706&0.69
CC(C)CC(NC(=O)c1nc[nH]c1C(=O)N1CCN(c2ccccc2)CC1)C(=O)OCc1ccccc1 (stereo not given)	0.709
C=CCC(CC(=O)NC(CO)Cc1ccccc1)C(=O)NC(COC(=O)C(CC=C)Cc1ccc(F)cc1)Cc1c[nH]c2ccccc12 (stereo not given)	0.75&0.773&0.699
COC(=O)[C@@]1(Cc2ccccc2)C2c3cc(C(=O)N4CCCC4)n(CCSCCO)c3CC2CN1C(=O)c1ccccc1 (stereo not given in full)	0.697
C=C1C(=O)OC2C1CCC(C)=CCC[C@@]1(C)OC21 (stereo not given in full)	0.693
COC(=O)C1C[C@@]2(O)C(O)C(O)C(O)CC2N1CC(c1ccccc1)c1ccccc1 (stereo not given in full)	0.607&0.623
CC(=O)NC(Cc1ccc(O)cc1)CN1C(N)=NCC1CC(C)C (stereo not given)	0.709
COC(=O)C1C(c2ccccc2)NC(=O)N(CCc2cc(OC)c(OC)c(OC)c2)C1C (stereo not given)	0.696
CNCC(C)NCC(Cc1ccccc1)NCCc1ccccc1 (stereo not given)	0.632
COc1ccc(NC=C(C2OC(=O)c3ccccc32)[N+](=O)[O-])cc1 (stereo not given)	0.716
COc1ccc(N2C(=O)N3C(c4cccc(C)c4)C4C(=O)N(Cc5ccccc5)C(=O)C4[C@]3(Cc3ccccc3)C2=O)cc1 (stereo not given in full)	0.718
CC(NC(=O)OCc1ccccc1)C(=O)NNC(=O)C(Cc1ccccc1)NC(=O)OC(C)(C)C (stereo not given)	0.675
Cc1ccc(CCNC(=O)C2CCCN(S(=O)(=O)c3c(C)noc3C=CN(C)C)C2)cc1 (stereo not given)	0.673
CC1CN(C(C)CO)C(=O)c2cccc(NS(=O)(=O)c3ccccc3)c2OC1CN(C)Cc1ccc(-c2ccccc2)cc1 (stereo not given)	0.694
CCCCN1CC(=O)N2C3c4ccc(OC)cc4OCC3C(c3ccccc3)[C@]2(C)C1=O (stereo not given in full)	0.627
CN(CC(Cc1ccccc1)N(CC(c1ccccc1)N(CCc1ccccc1)N=O)N=O)N=O (stereo not given)	0.754
CCC1=C2CCC3C(=O)N(CC)C(=O)C3C2[C@@]2(Cc3ccccc3)C(=NCc3ccccc3)OC(=O)N2C1=O (stereo not given in full)	0.669
COc1ccc(C(OC)[C@@]2(Cc3ccc(O)cc3)N=C(N)N(C)C2=O)cc1 (stereo not given in full)	0.703&0.694
COc1ccc(SC(CCN2CCC(C)CCC2=O)c2ccccc2)cc1 (stereo not given)	0.705
COc1ccc(C2C3C(=O)N(C(C)(C)C)C(=O)C3[C@]3(C)C(=O)N(c4ccc(C(F)(F)F)cc4)C(=O)N23)cc1 (stereo not given in full)	0.641
O=C1NCC(Cc2cccc3ccccc23)N(CC2(c3ccccc3)CC2)C1=O (stereo not given)	0.667
COc1ccc(C2C3C(=O)N(C(C)(C)C)C(=O)C3[C@]3(Cc4ccc(Cl)cc4)C(=O)N(c4ccc(Br)cc4)C(=O)N23)cc1 (stereo not given in full)	0.716
CCC1=C(OC(=O)N(CC)CC)N2C(=O)OC(=NCC3CC3)[C@]2(C)C2C1=CCC1C(=O)N(C)C(=O)C12 (stereo not given in full)	0.669
CC(NC(=O)c1ncn(C)c1C(=O)NC(C)c1ccccc1)c1ccccc1 (stereo not given)	0.679&0.677
CCCCN1CC(=O)N2C3c4cc(Cl)ccc4OCC3C(C(=O)OCC)[C@]2(C)C1=O (stereo not given in full)	0.703
CC(C)CC(CO)Nc1nc(N(C)c2cccc(Cl)c2)c2ncn(C(C)C)c2n1 (stereo not given)	0.659
C[C@]12C(=O)N(c3cccc(Cl)c3)C(=O)N1C1c3ccccc3OCC1C2c1ccccc1 (stereo not given in full)	0.705
CC(NC(=O)c1nc[nH]c1C(=O)NC(Cc1ccccc1)C(=O)OCc1ccccc1)c1ccccc1 (stereo not given)	0.659&0.779

Four consecutive entries from above, for reference:
SMILES	E coli growth
CC1CN(C(C)CO)C(=O)c2cccc(NS(=O)(=O)c3ccccc3)c2OC1CN(C)Cc1ccc(-c2ccccc2)cc1 (stereo not given)	0.694
CCCCN1CC(=O)N2C3c4ccc(OC)cc4OCC3C(c3ccccc3)[C@]2(C)C1=O (stereo not given in full)	0.627
CN(CC(Cc1ccccc1)N(CC(c1ccccc1)N(CCc1ccccc1)N=O)N=O)N=O (stereo not given)	0.754
CCC1=C2CCC3C(=O)N(CC)C(=O)C3C2[C@@]2(Cc3ccccc3)C(=NCc3ccccc3)OC(=O)N2C1=O (stereo not given in full)	0.669

Returning to the listing, starting 4 compounds before the break.
SMILES	E coli growth
CCCCN1CC(=O)N2C3c4cc(Cl)ccc4OCC3C(C(=O)OCC)[C@]2(C)C1=O (stereo not given in full)	0.703
CC(C)CC(CO)Nc1nc(N(C)c2cccc(Cl)c2)c2ncn(C(C)C)c2n1 (stereo not given)	0.659
C[C@]12C(=O)N(c3cccc(Cl)c3)C(=O)N1C1c3ccccc3OCC1C2c1ccccc1 (stereo not given in full)	0.705
CC(NC(=O)c1nc[nH]c1C(=O)NC(Cc1ccccc1)C(=O)OCc1ccccc1)c1ccccc1 (stereo not given)	0.659&0.779
CC[C@@]12C(=O)N(c3cccc(Br)c3)C(=O)N1C(c1cccc(C)c1)C1C(=O)N(Cc3ccccc3)C(=O)C12 (stereo not given in full)	0.715
O=C(Nc1ccccn1)C1CCC(=O)N1C(=O)OCc1ccccc1 (stereo not given)	0.708
C=CC(CC(C)C)N(Cc1ccccc1)S(=O)(=O)N(Cc1ccc(OC)cc1)C(C=C)CC(C)C (stereo not given)	0.698
COc1cccc(N2C(CC(C)=O)c3ccccc3S2(=O)=O)c1 (stereo not given)	0.706
COc1ccc(N=C2SC(=Cc3cccs3)C(=O)N2CC(C)C)cc1	0.708
COc1ccc(C2CC(=O)C=C(c3ccc(NC(C)=O)cc3)C2)cc1OC (stereo not given)	0.649
CCN1C(=NCc2ccc(OC)cc2)NC(c2ccccc2)C(C(=O)OC)=C1C (stereo not given)	0.679
CC(C)CC1NC(=O)C(Cc2ccc(O)cc2)NC(=O)c2cc([N+](=O)[O-])cc(I)c2NCCCC(C(N)=O)NC1=O (stereo not given)	0.679
Cc1ccc(S(=O)(=O)N2C(c3ccc4c(c3)OCO4)CC=C(C(=O)O)C2c2ccc(F)cc2)cc1 (stereo not given)	0.656
COc1ccc(C2CC(=O)C=C(c3cc(OC)ccc3OC)C2)cc1 (stereo not given)	0.663
CN1C(=O)C2C(C1=O)C(c1ccc(F)cc1)N1C(=O)c3ccccc3NC(=O)C21 (stereo not given)	0.686
O=C1CCN(CCc2ccccc2)CCN1C(CSc1ccc(Br)cc1)Cc1ccccc1 (stereo not given)	0.672
CC1CCCCC1NC(=O)C(C#N)=Cc1ccc(F)c(F)c1 (stereo not given)	0.698
CCCCC1C2=C3C(CC(C(=O)OC)=CC(C(=O)OC)C3C(C)(C)C2=O)n2c(=O)n(-c3ccccc3)c(=O)n21 (stereo not given)	0.697
CCOC(=O)C1C2COc3ccccc3C2N2C(=O)CNC(=O)[C@@]12C (stereo not given in full)	0.703
CC(O)C(C(=O)N1CCNCC1)n1cc(CCCCN)nn1 (stereo not given)	0.702
Cc1cccc(C2C3C(=O)N(Cc4ccccc4)C(=O)C3[C@]3(Cc4ccccc4)C(=O)N(c4cccc(Cl)c4)C(=O)N23)c1 (stereo not given in full)	0.696
BrC(C=NNc1nc(N2CCOCC2)nc(N2CCOCC2)n1)=Cc1ccccc1	0.669
CCC(C)CN1C(=O)NC(c2ccccc2)C(C(C)=O)=C1C (stereo not given)	0.684

Assay outcomes as filed in PubChem BioAssay.
